High-throughput results (PubChem)
H5N1 antiviral: MDCK cell protection from H5N1 avian flu; cytopathic effect, luminescence, 72 h; active compounds read high; no value below 0 was filed and about half of the inactive calls have no number; reference of the scale not given here; inhibition, % at 50 µM; hit rate 0.07% among 96,000; AID 740; in the data active = inhibition above about 25%
* hit, by the source's call.

Sample of the layout, 2 compounds:
Results for CC(C)(C)C(=O)NC(=S)Nc1cc(C(F)(F)F)ccc1N1CCOCC1 ?
H5N1 antiviral: 4.0

How did COc1ccnc(Oc2ccc(F)cc2)c1C(=O)N/C=N/OCc1ccc(Cl)cc1Cl do in these assays?
H5N1 antiviral: inactive

The whole of this part, from the start:
Results for CC(C)(C)C(=O)NC(=S)Nc1cc(C(F)(F)F)ccc1N1CCOCC1 ?
H5N1 antiviral: 4.0

How did COc1ccnc(Oc2ccc(F)cc2)c1C(=O)N/C=N/OCc1ccc(Cl)cc1Cl do in these assays?
H5N1 antiviral: inactive

How did CCCOc1cccc(C(=O)Nc2cc(NC(=O)c3ccco3)ccc2OC)c1 do in these assays?
H5N1 antiviral: 2.0

What do the screens show for `Cc1ccccc1OCCCCc1c(C)n[nH]c1C`?
H5N1 antiviral: inactive

What do the screens show for `Cc1nnc(NCc2n[nH]c(=O)c3ccccc23)c2ccccc12`?
H5N1 antiviral: 5.7

How did CCOc1ccc(/C=C/C(=O)Nc2ccc(N3CCOCC3)cc2)cc1 do in these assays?
H5N1 antiviral: 0.8

What do the screens show for `CCN(Cc1nc2ccccc2c(=O)[nH]1)Cc1nc2cc(OC)c(OC)cc2c(=O)[nH]1`?
H5N1 antiviral: 1.9

How did CN1CCN(c2nc(-c3ccncc3)nc3ccccc23)CC1 do in these assays?
H5N1 antiviral: inactive

Results for O=C(CCC(=O)Nc1ccccc1)NNC(=O)c1cccs1 ?
H5N1 antiviral: inactive

Results for CCCc1nnc(SCC(=O)N2CCCC2)n1CC1CCCO1 (stereo unspecified) ?
H5N1 antiviral: inactive

How did CC(C)OC(=O)c1nnn(-c2nonc2N)c1CSc1ccccn1 do in these assays?
H5N1 antiviral: inactive

Results for O=C(O)C1C2CCC(O2)C1C(=O)Nc1cccc(F)c1 (stereo unspecified) ?
H5N1 antiviral: inactive

What do the screens show for `Cc1cc(C(=O)NCC(=O)OC(C(=O)Nc2cc(C(F)(F)F)ccc2Cl)c2ccccc2)ccc1[N+](=O)[O-]` (stereo unspecified)?
H5N1 antiviral: inactive

How did CCOC(=O)Cc1csc(NC(=O)c2ccc(Br)s2)n1 do in these assays?
H5N1 antiviral: 0.8

How did COc1cc(Cl)cc(C#N)c1OCC(=O)O do in these assays?
H5N1 antiviral: inactive

What do the screens show for `COCc1nnc(NC(=O)CCCCCN2C(=O)c3ccccc3C2=O)s1`?
H5N1 antiviral: 1.4

How did Nc1ccc(Sc2nnnn2-c2ccccc2)c(Cl)c1 do in these assays?
H5N1 antiviral: 1.3

Results for O=C(NC1CCCC1)C1C2C=CC(C2)C1C(=O)N1CCOCC1 (stereo unspecified) ?
H5N1 antiviral: inactive

How did COc1ccc(CNC(=O)C(c2cccs2)N(C(=O)c2csnn2)C2CC2)cc1 (stereo unspecified) do in these assays?
H5N1 antiviral: 0.0

What do the screens show for `N/C(=N\OC(=O)c1ccc(Cl)cc1Cl)c1ccc(Cl)cc1`?
H5N1 antiviral: 0.6

How did O=c1/c(=C/c2ccc(O)cc2)sc2n1CCCN=2 do in these assays?
H5N1 antiviral: 3.4

How did COc1cc(S(=O)(=O)NC2CCCC2)c(OC)cc1Cl do in these assays?
H5N1 antiviral: 0.1

How did CCOC(=O)c1cccc(NC(=O)CCn2nnc3ccccc32)c1 do in these assays?
H5N1 antiviral: 0.3

What do the screens show for `CC(C)/C(=N\NC(=O)Nc1ccccc1)c1ccccc1`?
H5N1 antiviral: 4.7

What do the screens show for `Nn1c(SCC(=O)NCc2ccccc2)nnc1C1CC1`?
H5N1 antiviral: 0.9

What do the screens show for `Cc1cc(C)n(-c2cc(N3CCN(S(=O)(=O)c4ccc5ccccc5c4)CC3)ccc2[N+](=O)[O-])n1`?
H5N1 antiviral: 1.0

What do the screens show for `Cc1nn2c(NCC(C)C)c3c(nc2c1-c1ccccc1)CCC3`?
H5N1 antiviral: inactive

What do the screens show for `CS(=O)(=O)Nc1ccccc1C(=O)c1ccccc1`?
H5N1 antiviral: inactive

How did CCCCOP(=O)(CN1CCOCC1)OCCCC do in these assays?
H5N1 antiviral: inactive

What do the screens show for `O=c1[nH]ncn1-c1cccc(C(F)(F)F)c1`?
H5N1 antiviral: inactive

How did COC(=O)CSc1nsc(SCC(=O)OC)c1C#N do in these assays?
H5N1 antiviral: inactive

How did COc1cc([N+](=O)[O-])ccc1NC(=O)CCCOc1cccc(C)c1C do in these assays?
H5N1 antiviral: 0.0

What do the screens show for `Cc1c(C(=O)Nc2cccc3cccnc23)oc2ccccc12`?
H5N1 antiviral: 0.2

How did CCc1cc2c(=O)n(CC)c(SC(C)C(=O)Nc3c(C)n(C)n(-c4ccccc4)c3=O)nc2s1 (stereo unspecified) do in these assays?
H5N1 antiviral: inactive

What do the screens show for `Cc1cc(OCCCC(=O)NC2=NCCS2)ccc1Cl`?
H5N1 antiviral: inactive

How did COc1cccc2c(=O)n(CC(=O)Nc3ccccc3)ccc12 do in these assays?
H5N1 antiviral: 1.3

How did CCOC(=O)C1=C(C)N(C)C(C)=C(C(=O)OCC)C1c1ccccn1 do in these assays?
H5N1 antiviral: 2.0

Results for CCn1c(Cc2c(C)[nH]c3ccccc23)nnc1SCC(=O)NCc1ccccc1 ?
H5N1 antiviral: inactive

What do the screens show for `O=C(CCCCCn1c(=S)[nH]c2cc3c(cc2c1=O)OCO3)N1CCN(C(=O)c2ccco2)CC1`?
H5N1 antiviral: inactive

How did O=C(NCC1COc2ccccc2O1)C1CCN(S(=O)(=O)c2cccc3nsnc23)CC1 (stereo unspecified) do in these assays?
H5N1 antiviral: 0.4

Results for CC(C)C(NCc1c(Cl)cccc1Cl)C(=O)O (stereo unspecified) ?
H5N1 antiviral: inactive

How did O=C(Cn1c(S(=O)(=O)Cc2ccccc2)nc2ccccc21)N1CCCCC1 do in these assays?
H5N1 antiviral: inactive

How did CCCSc1nnc2n(-c3ccccc3OC)c(=O)c3c4c(sc3n12)CCC4 do in these assays?
H5N1 antiviral: 4.1

How did CC(C)CNC(=O)C(=O)N/N=C/c1cccs1 do in these assays?
H5N1 antiviral: 0.5

Results for COc1ccc(C(=O)N2CCOCC2)cc1Br ?
H5N1 antiviral: inactive

What do the screens show for `CCN(CC)S(=O)(=O)c1ccc2c(c1)c(=O)c(C(=O)NCCN(C)CCc1ccccc1)cn2C`?
H5N1 antiviral: 0.6

Results for Cc1ccc(C)c(OCCOCCN2CC(C)OC(C)C2)c1C (stereo unspecified) ?
H5N1 antiviral: inactive

Results for CC(C)NS(=O)(=O)c1ccc(OCC(=O)N2CCN(C)CC2)cc1 ?
H5N1 antiviral: 0.4

How did COc1ccc(S(=O)(=O)n2nc(OC(=O)C3CCCCC3)cc2N)cc1 do in these assays?
H5N1 antiviral: inactive

Results for CC(C)CC(c1nnnn1CC1CCCO1)N1CCN(C2CCCC2)CC1 (stereo unspecified) ?
H5N1 antiviral: 0.5

What do the screens show for `Cc1sc(=NC(=O)c2ccco2)n(C)c1-c1ccc(Cl)cc1`?
H5N1 antiviral: 3.1

Results for Cc1noc(C)c1C(=O)NCCc1ccc(Cl)cc1 ?
H5N1 antiviral: inactive

Results for COc1cc2nc(NCCCN3CCN(C)CC3)n3nc(-c4ccccc4)nc3c2cc1OC ?
H5N1 antiviral: inactive

Results for CCOc1ccc(OCC(=O)Nc2ccc(S(=O)(=O)Nc3cc(C)nc(C)n3)cc2)cc1 ?
H5N1 antiviral: 0.4

What do the screens show for `Cc1cccc(N(CC(=O)NCc2ccco2)C(=O)CCC(=O)Nc2ccccn2)c1`?
H5N1 antiviral: inactive

How did CCN(CC)C(=O)CSc1ccccc1N do in these assays?
H5N1 antiviral: 2.4

Results for COC(=O)CNC(=O)COc1ccccc1 ?
H5N1 antiviral: 1.0

What do the screens show for `O=C1CN(C(=O)OCc2ccccc2)c2ccccc2N1`?
H5N1 antiviral: 0.1

Results for Cc1cc2c(c(=O)n1C)C(C(C)C)C(C#N)=C(N)O2 (stereo unspecified) ?
H5N1 antiviral: 1.3

Results for CCC(=O)Oc1ccc2c(C)cc(=O)oc2c1C ?
H5N1 antiviral: 0.1

What do the screens show for `O=C(CCn1cccc1)NCc1ccc2c(c1)OCO2`?
H5N1 antiviral: 0.1

What do the screens show for `Cc1c(C(=O)N2CCN(c3ccccc3F)CC2)sc2ncn(CC(=O)N3CCOCC3)c(=O)c12`?
H5N1 antiviral: inactive

How did CN1CCN(C(=O)c2cc(-c3cccc(Cl)c3)on2)CC1 do in these assays?
H5N1 antiviral: 0.1

What do the screens show for `COc1ccccc1NC1=C(C)C(=O)CC1`?
H5N1 antiviral: 1.0

What do the screens show for `CCN(CC)CCCNC(=O)Cn1ncn2cccc2c1=O`?
H5N1 antiviral: inactive

Results for CCc1nnc(NC(=O)CSc2nnc(-c3ccccc3O)n2-c2ccc(C)cc2)s1 ?
H5N1 antiviral: 0.2

What do the screens show for `c1ccc(N2CCN(c3c4c(nc5ncnn35)CCC4)CC2)cc1`?
H5N1 antiviral: 2.5

What do the screens show for `Cc1ccc(N(C(C)C(=O)O)S(=O)(=O)c2c(C)n[nH]c2C)cc1` (stereo unspecified)?
H5N1 antiviral: inactive

Results for COc1ccc(NC(=O)CN2CCN(CC(=O)Nc3ccccc3Cl)CC2)c(OC)c1 ?
H5N1 antiviral: inactive

What do the screens show for `CN(CCc1ccccn1)C(=O)CN(C)S(=O)(=O)c1ccc2c(c1)c(=O)n(C)c(=O)n2C`?
H5N1 antiviral: inactive

What do the screens show for `c1ccc(Cn2c(SCCN3CCOCC3)nnc2-c2cccnc2)cc1`?
H5N1 antiviral: 0.4

Results for CC(C)[C@H](NC(=O)OC(C)(C)C)c1nnc(SCc2cccc(F)c2)o1 ?
H5N1 antiviral: 1.0

Results for CCN1CCN(c2ccc(NC(=O)c3cccc(OCc4ccccc4)c3)cc2)CC1 ?
H5N1 antiviral: inactive

How did CC1=C(C(=O)Nc2ccccc2)C(c2ccc(O)cc2)N2C(=O)CSC2=N1 (stereo unspecified) do in these assays?
H5N1 antiviral: 0.2

Results for COC(=O)c1ccc2c(=O)sc(N3CCC(C(N)=O)CC3)nc2c1 ?
H5N1 antiviral: inactive

Pulled by compound from the list above (six):
Results for CCc1nnc(NC(=O)CSc2nnc(-c3ccccc3O)n2-c2ccc(C)cc2)s1 ?
H5N1 antiviral: 0.2

What do the screens show for `c1ccc(N2CCN(c3c4c(nc5ncnn35)CCC4)CC2)cc1`?
H5N1 antiviral: 2.5

How did CN1CCN(C(=O)c2cc(-c3cccc(Cl)c3)on2)CC1 do in these assays?
H5N1 antiviral: 0.1

Results for CC(C)[C@H](NC(=O)OC(C)(C)C)c1nnc(SCc2cccc(F)c2)o1 ?
H5N1 antiviral: 1.0

What do the screens show for `O=C(CCn1cccc1)NCc1ccc2c(c1)OCO2`?
H5N1 antiviral: 0.1

What do the screens show for `CN(CCc1ccccn1)C(=O)CN(C)S(=O)(=O)c1ccc2c(c1)c(=O)n(C)c(=O)n2C`?
H5N1 antiviral: inactive

(next part)
What do the screens show for `COc1ccccc1N1C(=O)c2ccccc2NC1c1ccncc1` (stereo unspecified)?
H5N1 antiviral: 0.9

Results for COc1ccc(Cc2nnc(-c3cccc(C)c3)o2)cc1OC ?
H5N1 antiviral: 1.0

How did Cc1ccc2c(c1)cc(CN(Cc1ccc3c(c1)OCO3)S(=O)(=O)c1ccccc1)c1nnnn12 do in these assays?
H5N1 antiviral: inactive

What do the screens show for `Cc1csc(NC(=O)Cn2cnnn2)n1`?
H5N1 antiviral: inactive

What do the screens show for `COc1ccc(CCNc2nncc(=O)[nH]2)cc1OC`?
H5N1 antiviral: 0.6

What do the screens show for `O=C(Nc1nnc(-c2ccc3c(c2)CCCC3)o1)c1ccc(Cl)cc1Cl`?
H5N1 antiviral: 1.7

How did Cc1ccc(/C=N\Nc2nc3ccc(Cl)cc3[nH]2)o1 do in these assays?
H5N1 antiviral: 1.8

What do the screens show for `COC(=O)c1cccc(NC(=O)CSc2nnc(COc3ccccc3)n2C)c1`?
H5N1 antiviral: inactive

How did CC(C)NC(=O)c1ccc2c(c1)N(CC(=O)N1CCOCC1)C(=O)C(C)(C)O2 do in these assays?
H5N1 antiviral: inactive

How did Cc1nc(NC(=O)c2ccccc2)sc1-c1csc(Nc2ccc(Cl)cc2)n1 do in these assays?
H5N1 antiviral: inactive

What do the screens show for `O=C(CCCC(=O)N(CC(=O)NC1CCCCC1)CC1CCCO1)Nc1ccccn1` (stereo unspecified)?
H5N1 antiviral: 0.6

Results for O=C(N1CCN(c2ccccn2)CC1)N1c2ccccc2Sc2ccccc21 ?
H5N1 antiviral: 2.2

Results for CCCCC(=O)Nc1nn(C)c2nc3c(C)cccc3cc12 ?
H5N1 antiviral: 1.3

How did Cc1cccc(NC(=O)c2cc(=O)c3ccccc3o2)n1 do in these assays?
H5N1 antiviral: 0.1

What do the screens show for `CC1=NOC2(C1)/C(=N/O)CCC/C2=N\O` (stereo unspecified)?
H5N1 antiviral: inactive

6 entries from above, ordered by heavy-atom count, falling.
How did Cc1ccc2c(c1)cc(CN(Cc1ccc3c(c1)OCO3)S(=O)(=O)c1ccccc1)c1nnnn12 do in these assays?
H5N1 antiviral: inactive

How did Cc1nc(NC(=O)c2ccccc2)sc1-c1csc(Nc2ccc(Cl)cc2)n1 do in these assays?
H5N1 antiviral: inactive

Results for COc1ccc(Cc2nnc(-c3cccc(C)c3)o2)cc1OC ?
H5N1 antiviral: 1.0

How did Cc1cccc(NC(=O)c2cc(=O)c3ccccc3o2)n1 do in these assays?
H5N1 antiviral: 0.1

How did Cc1ccc(/C=N\Nc2nc3ccc(Cl)cc3[nH]2)o1 do in these assays?
H5N1 antiviral: 1.8

What do the screens show for `CC1=NOC2(C1)/C(=N/O)CCC/C2=N\O` (stereo unspecified)?
H5N1 antiviral: inactive

More compounds.
How did CCN1CCCC1CNC(=O)c1cc2c(C)nc3ccccc3c2o1 (stereo unspecified) do in these assays?
H5N1 antiviral: 0.1

How did CCN1C(=O)CC(NNC(=O)c2ccc(Cl)cc2)C1=O (stereo unspecified) do in these assays?
H5N1 antiviral: inactive

Results for CCCc1nc2sc3ccccc3c(=O)c2c(=O)n1CCOC ?
H5N1 antiviral: 1.6

Results for Cc1ccc(CSc2nc3ccccc3c(=O)n2CCCC(=O)NCc2ccco2)cc1 ?
H5N1 antiviral: inactive

What do the screens show for `Cc1cc(C)cc(OCC(=O)NCC2CCCO2)c1` (stereo unspecified)?
H5N1 antiviral: inactive

What do the screens show for `O=C(CSc1ccc(C(F)(F)F)cc1[N+](=O)[O-])Nc1ccccc1`?
H5N1 antiviral: inactive

How did COc1ccc2cc(CN(CC3CCCO3)S(=O)(=O)c3ccccc3)c(=O)[nH]c2c1 (stereo unspecified) do in these assays?
H5N1 antiviral: 0.4

Only part of the results is shown. The share of hits here may be higher or lower than overall.
